Assay outcomes: PubChem BioAssay, Broad Institute
AF4-AF9 inh: blocks AF4 peptide binding to human AF9 | inhibition, % at 10 µM | 350,000 compounds, 0.47% hits | P42568 | AlphaScreen, biotin-AF4 peptide binding to FLAG-AF9 | AID 651704;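 active means every replicate reaching a set inhibition limit, whatever the replicate mean, cut at about 25% in these data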;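 further: 0% = plate neutral control median and 100% = total signal loss; the record names both 10 and 1 µM as test concentration; the first replicate is given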
Target sequence (P42568 whole entry, looked up): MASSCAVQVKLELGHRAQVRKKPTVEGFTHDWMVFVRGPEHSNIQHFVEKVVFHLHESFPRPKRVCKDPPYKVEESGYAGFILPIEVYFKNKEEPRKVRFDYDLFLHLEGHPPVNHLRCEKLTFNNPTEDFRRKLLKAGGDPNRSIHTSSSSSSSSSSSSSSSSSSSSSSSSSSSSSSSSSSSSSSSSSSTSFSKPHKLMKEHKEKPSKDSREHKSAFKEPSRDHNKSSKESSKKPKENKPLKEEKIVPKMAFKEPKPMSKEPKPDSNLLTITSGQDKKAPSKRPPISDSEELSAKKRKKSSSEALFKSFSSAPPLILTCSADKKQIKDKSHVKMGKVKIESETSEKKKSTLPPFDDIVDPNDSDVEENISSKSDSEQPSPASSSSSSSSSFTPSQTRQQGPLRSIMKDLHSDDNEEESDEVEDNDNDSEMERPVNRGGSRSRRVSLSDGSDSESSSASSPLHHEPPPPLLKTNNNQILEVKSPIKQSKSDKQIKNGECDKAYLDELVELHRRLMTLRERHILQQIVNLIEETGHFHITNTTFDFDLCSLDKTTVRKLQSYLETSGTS
Numbers without * were called inactive; & = joins results of further samples. Only part of the results is shown; count on the stated rates, not on these rows.

SMILES	AF4-AF9 inh
CO[C@@H]1CN(C)C(=O)c2cc(NC(C)=O)ccc2OC[C@@H](C)N(S(=O)(=O)c2cn(C)cn2)C[C@H]1C	-1.3
COCC#Cc1cnc2c(c1)C(=O)N([C@H](C)CO)C[C@@H](C)[C@@H](CN(C)S(=O)(=O)c1cccc(OC)c1)O2	-3.1
CC(C)N(C(=O)[C@H]1C[C@H](CC(=O)NCc2ccco2)C(=O)N2CCc3c([nH]c4cc(-c5ccco5)ccc34)[C@]12C)C(C)C	3.9
CCCN(C)C[C@H]1Oc2ncc(-c3cccnc3)cc2C(=O)N([C@H](C)CO)C[C@@H]1C	-0.9
C[C@H]1CN([C@@H](C)CO)C(=O)c2cc(C#Cc3ccccc3F)cnc2O[C@@H]1CN(C)C(=O)Cc1ccccc1	-2.1
CCS(=O)(=O)Nc1ccc2c(c1)C(=O)N(C)C[C@@H](OC)[C@H](C)CN(CCC(F)(F)F)[C@H](C)CO2	-3.3
CCCCCCCCNCCS(=O)(=O)NCc1ccccc1OC	-5.0
O=C(C1CCC1)N1CC[C@@H]2[C@H](CO)Nc3ccc(C#Cc4ccc(F)cc4)cc3[C@@H]21	2.8
CC1(C(=O)Nc2ccc(Cl)cc2)Cc2c(-c3ccc4c(c3)OCO4)ccnc2O1 (centres undefined)	-1.0
COC[C@@H]1CCCN1c1ccc2c(c1)O[C@H](COCc1ccccc1)CN([C@H](C)c1ccccc1)S2(=O)=O	-5.3
C[C@@H]1CN([C@@H](C)CO)C(=O)c2cc(NC(=O)C3CCCCC3)ccc2O[C@@H](C)CCCCO[C@@H]1CN(C)S(=O)(=O)c1ccc(F)cc1	-2.2
O=C(C1CCCC1)N1C[C@@H]2[C@H](c3ccccc31)[C@H](CO)N2C(=O)c1cccnc1	-0.7
C[C@H]1CCCCO[C@H](CN(C)S(=O)(=O)c2ccc(Cl)cc2)[C@@H](C)CN([C@@H](C)CO)C(=O)c2cc(NC(=O)NC3CCCCC3)ccc2O1	1.0
C[C@@H]1CN([C@@H](C)CO)C(=O)c2cc(NC(=O)Nc3ccc(F)cc3)ccc2O[C@@H](C)CCCCO[C@@H]1CN(C)S(=O)(=O)c1ccc(Cl)cc1	-3.1
COc1cccc(NC(=O)N[C@@H]2CC[C@H](CC(=O)Nc3ccc(-c4ccccc4)cc3)O[C@H]2CO)c1	1.4
CN1C(=O)c2cc(NC(=O)Cc3cccs3)ccc2OC[C@H]2O[C@@H](CC(=O)NCC3CCCCC3)CC[C@H]21	0.3
CCNC(=O)[C@H]1[C@H](CO)[C@H]2Cn3c(ccc(C4=CCCCC4)c3=O)[C@H]2N1CC1CC1	-1.4
N#Cc1ccccc1S(=O)(=O)NC(=O)[C@H]1O[C@@H](n2cnc3c(N)ncnc32)[C@H](O)[C@@H]1O	1.1
C[C@@H]1CN([C@H](C)CO)C(=O)c2c(c3ccccc3n2C)-c2ccccc2CO[C@@H]1CN(C)S(=O)(=O)c1ccccc1C#N	2.6
C=CS(=O)(=O)N[C@@H](CSSC[C@H](NS(=O)(=O)C=C)C(=O)OC)C(=O)OC	-11.7
CC(C)(C)[S@@](=O)N1Cc2cc(C(=O)NCc3ccccc3F)nc(-c3cccc(-c4cncnc4)c3)c2[C@H]1CCO	3.8
Cc1cccc(-c2ccc([C@@H]3[C@H]4CN(S(=O)(=O)c5cccc(F)c5)CC(=O)N4[C@H]3CO)cc2)c1	-0.7
CC1(C(=O)NS(=O)(=O)c2ccccc2Cl)CCN1C(=O)C/C=C/c1ccccc1 (centres undefined)	-4.9
CN1CCN(C(=O)C[C@H]2CC[C@H]3[C@@H](COC[C@@H](O)CN3C(=O)C3CCOCC3)O2)CC1	-21.0
O=C(C[C@@H]1CC[C@@H]2[C@H](COC[C@H](O)CN2CC2CCCC2)O1)NCc1ccc(Cl)cc1	-0.6
C[C@@H]1CN([C@H](C)CO)S(=O)(=O)c2ccc(C#Cc3cccnc3)cc2O[C@H]1CN(C)C	-0.5
C[C@H](CO)N1C[C@H](C)[C@@H](CN(C)C(=O)Cc2ccncc2)Oc2ncc(C#CC3(O)CCCC3)cc2C1=O	0.0
COc1ccc(NC(=O)N(C)C[C@@H]2OCCCC[C@H](C)Oc3ccc(NS(=O)(=O)c4ccc(C)cc4)cc3C(=O)N([C@H](C)CO)C[C@@H]2C)cc1	-1.8
CCOC(=O)CC1(C)c2nc(NC(C)=O)sc2Cc2sc(NC(C)=O)nc21	-4.5
COc1ccc(C(=O)N2CCCC(c3cc(C(=O)NCc4ccc(F)cc4)no3)C2)cc1 (centres undefined)	-9.7
COC(=O)c1cc2c(c3c4ccccc4n(S(=O)(=O)c4ccc(OC)cc4)c13)C(=O)N(Cc1ccccc1OC)C2	-0.6
CCC(=O)Nc1ccc2c(c1)OC[C@@H](C)N(Cc1nccs1)C[C@H](C)[C@@H](OC)CN(C)C2=O	0.0
CCNC(=O)C1(C)CCN(C(=O)c2cccc(C(F)(F)F)c2)C1 (centres undefined)	0.6
O=C(C[C@@H]1CC[C@@H]2[C@H](COC[C@@H](O)CN2Cc2ccc(F)cc2)O1)N1CCc2ccccc2C1	-3.9
N#C[C@H]1[C@@H](c2ccccc2-c2cccc(F)c2)[C@H](CO)N1C(=O)C1CCCC1	-1.2
CN(C)C(=O)c1cccc(-c2ccc3c(c2)[C@H]2[C@H](CCN2C(=O)C2CCCC2)[C@@H](CO)N3)c1	9.0
COc1cccc(-c2ccc(NC(=O)C3CCCN(Cc4ccccn4)C3)cc2)c1 (centres undefined)	0.8
CCCN(C)C1CN(Cc2cn(CCCOC)nn2)S(=O)(=O)C1 (centres undefined)	-4.0
COc1ccc(S(=O)(=O)Nc2ccc3c(c2)C(=O)N([C@@H](C)CO)C[C@@H](C)[C@H](CN(C)C(=O)C2CCCCC2)OCCCC[C@@H](C)O3)cc1	0.1
C[C@@H]1CCCCO[C@@H](CN(C)S(=O)(=O)c2cccs2)[C@@H](C)CN([C@H](C)CO)C(=O)c2cc(NC(=O)Nc3ccc(F)cc3)ccc2O1	-6.5
C[C@@H]1CN([C@@H](C)CO)C(=O)c2cc(C#CC3CC3)cnc2O[C@H]1CN(C)Cc1ccncc1	0.4
C[C@H]1CN([C@@H](C)CO)C(=O)c2cc(NC(=O)C3CCCCC3)ccc2O[C@@H]1CN(C)CC1CC1	1.1
CN(C)CCCNC(=O)C[C@@H]1C=C[C@H](NC(=O)c2ccccc2F)[C@H](CO)O1	0.3
C/C=C/c1ccc([C@@H]2[C@H](C#N)N(C(=O)CN3CCOCC3)[C@H]2CO)cc1	-1.4
COc1ccccc1S(=O)(=O)N[C@H]1C=C[C@H](CC(=O)NCc2cccc(F)c2)O[C@H]1CO	-3.0
O=C(CN1CCOCC1)N1CCCCN2[C@@H](CO)[C@@H](c3ccc(-c4ccccc4)cc3)[C@@H]2C1	-0.9
Cc1ccc(S(=O)(=O)Nc2ccc3c(c2)C(=O)N([C@@H](C)CO)C[C@@H](C)[C@H](CN(C)Cc2ccc4c(c2)OCO4)OCCCC[C@@H](C)O3)cc1	6.7
COc1ccccc1-c1ccc2c(c1)[C@@H]1[C@@H](CCN1C(=O)C1CC1)[C@H](CO)N2	7.5
CCNC(=O)C[C@H]1CC[C@@H]2[C@H](COC[C@@H](O)CN2C(=O)C2CC2)O1	-1.7
COc1ccc(NC(=O)C(c2ccccc2)n2c(=O)c(-c3cc4ccccc4[nH]3)nc3ccccc32)cc1 (centres undefined)	-12.6

4 records drawn at random from the list so far:
SMILES	AF4-AF9 inh
COc1ccc(NC(=O)C(c2ccccc2)n2c(=O)c(-c3cc4ccccc4[nH]3)nc3ccccc32)cc1 (centres undefined)	-12.6
COc1ccccc1S(=O)(=O)N[C@H]1C=C[C@H](CC(=O)NCc2cccc(F)c2)O[C@H]1CO	-3.0
CCNC(=O)C[C@H]1CC[C@@H]2[C@H](COC[C@@H](O)CN2C(=O)C2CC2)O1	-1.7
C[C@H]1CN([C@@H](C)CO)C(=O)c2cc(NC(=O)C3CCCCC3)ccc2O[C@@H]1CN(C)CC1CC1	1.1

(continued)
SMILES	AF4-AF9 inh
C[C@@H]1CN([C@@H](C)CO)C(=O)c2cccc(NS(=O)(=O)c3ccc(Cl)cc3)c2O[C@H]1CN(C)Cc1ccc(C(=O)Nc2ccccc2N)cc1	-1.8
C/C=C/c1ccc([C@@H]2[C@H](CO)N(S(C)(=O)=O)C23CN(C(=O)CC)C3)cc1	2.2
COc1ccc(C#Cc2ccc([C@H]3[C@@H](CO)N4C(=O)CN(C(=O)c5cccnc5)C[C@H]34)cc2)cc1	-2.6
O=C(C[C@H]1CC[C@@H](NC(=O)c2cccnc2)[C@@H](CO)O1)NCc1ccc(Cl)c(Cl)c1	0.1
CC(C)C[C@H]1CNC(=O)C(=O)N1C[C@H](Cc1ccc(O)cc1)NC(=O)Cc1ccccc1	-0.7
CN(C)C(=O)C[C@@H]1C=C[C@@H](NC(=O)C2CC2)[C@H](CO)O1	-1.5
Cc1noc(C)c1NC(=O)Nc1ccc2c(c1)CC(=O)N([C@H](C)CO)C[C@H](C)[C@H](CN(C)Cc1ccc(-c3ccccc3)cc1)O2	0.5
Cc1noc(C)c1NC(=O)Nc1cccc2c1O[C@@H](CN(C)C(=O)NC1CCCCC1)[C@@H](C)CN([C@@H](C)CO)C2=O	-2.5
CC(C)CC#Cc1ccc([C@H]2[C@H]3CN(C(=O)c4ccc5c(c4)OCO5)CCCCN3[C@H]2CO)cc1	5.4
CN1C(=O)c2cc(NC(=O)c3ccc(F)c(F)c3)ccc2OC[C@H]2O[C@@H](CC(=O)N[C@@H]3CCN(Cc4ccccc4)C3)CC[C@H]21	10.4
CNC[C@H]1Oc2c(NS(=O)(=O)c3ccc(Cl)cc3)cccc2C(=O)N([C@@H](C)CO)C[C@@H]1C	-3.7
C/C=C/c1ccc([C@@H]2[C@H](CO)N(C(C)=O)[C@H]2CNC(=O)CC2CC2)cc1	-1.0
COc1ccc2c3c(n(C)c2c1)[C@@H](CO)N(C(=O)CC1CC1)CC31CCN(C(=O)C2CCC2)CC1	2.7
C[C@@H]1CN([C@@H](C)CO)C(=O)c2cc(NC(=O)NC3CCCCC3)ccc2O[C@@H]1CN(C)C(=O)Nc1cccc2ccccc12	-4.9
C[C@@H]1CCCCO[C@@H](CN(C)C(=O)CCCN(C)C)[C@@H](C)CN([C@H](C)CO)C(=O)c2cc(N(C)C)ccc2O1	-1.3&1.9&0.7
O=C(C[C@@H]1CC[C@@H]2[C@H](COC[C@@H](O)CN2Cc2cccc(C(F)(F)F)c2)O1)NCCc1ccccc1	-10.1
C[C@@H]1CN([C@H](C)CO)C(=O)c2cc(NC(=O)C3CCCCC3)ccc2O[C@@H](C)CCCCO[C@@H]1CN(C)Cc1ccc(Cl)c(Cl)c1	0.9
CCCN(C)C[C@@H]1Oc2cc(C#C[C@@H](C)O)ccc2S(=O)(=O)N([C@H](C)CO)C[C@@H]1C	0.1
C[C@@H]1CCCCO[C@H](CN(C)Cc2ccccc2)[C@@H](C)CN([C@H](C)CO)C(=O)c2cc(NS(C)(=O)=O)ccc2O1	-2.1
COc1ccc(CN(C)C[C@@H]2Oc3ccc(NC(=O)Nc4cccc5ccccc45)cc3CC(=O)N([C@@H](C)CO)C[C@@H]2C)cc1	4.2

Sorted by the number under AF4-AF9 inh (largest number first): some entries from above.
SMILES	AF4-AF9 inh
CCNC(=O)C[C@H]1CC[C@@H]2[C@H](COC[C@@H](O)CN2C(=O)C2CC2)O1	-1.7
C[C@@H]1CN([C@@H](C)CO)C(=O)c2cc(NC(=O)C3CCCCC3)ccc2O[C@@H](C)CCCCO[C@@H]1CN(C)S(=O)(=O)c1ccc(F)cc1	-2.2
Cc1noc(C)c1NC(=O)Nc1cccc2c1O[C@@H](CN(C)C(=O)NC1CCCCC1)[C@@H](C)CN([C@@H](C)CO)C2=O	-2.5

(continued)
SMILES	AF4-AF9 inh
O=C(NCC[C@H]1CC[C@H](NC(=O)C2CC2)[C@@H](CO)O1)Nc1ccc(C(F)(F)F)cc1	16.6
Cc1noc(C)c1S(=O)(=O)N(C)C[C@H]1Oc2ccc(NC(=O)Nc3ccc4c(c3)OCO4)cc2CC(=O)N([C@@H](C)CO)C[C@H]1C	5.1
O=S(=O)(NCC[C@H]1CC[C@@H](NS(=O)(=O)c2cccc(F)c2)[C@H](CO)O1)c1cccc(F)c1	-4.9
CCC(=O)N1C[C@@H](C)[C@@H](OC)CN(C)C(=O)c2cc(NC(=O)c3ccccc3)ccc2OC[C@@H]1C	3.1
C[C@H]1CN([C@@H](C)CO)C(=O)c2cc(NS(=O)(=O)c3ccc(F)cc3)ccc2O[C@@H]1CN(C)CC1CC1	4.7
C[C@@H]1CN([C@@H](C)CO)C(=O)Cc2cc(NC(=O)Cc3cn(C)c4ccccc34)ccc2O[C@@H]1CN(C)Cc1ccccc1	5.8
O=C(C[C@H]1CC[C@@H](NC(=O)Cc2ccccn2)[C@@H](CO)O1)NCCc1ccncc1	-0.2
COc1ccc(C#Cc2ccc3c(c2)[C@H]2[C@H](CCN2S(=O)(=O)c2cccc(OC)c2)[C@H](CO)N3C)cc1	2.0
C[C@H]1CCCCO[C@H](CN(C)C(=O)c2ccccc2)[C@@H](C)CN([C@@H](C)CO)C(=O)c2cc(NC(=O)C3CCCCC3)ccc2O1	-0.3
O=C(NCc1ccc(F)cc1)[C@@H]1[C@@H](CO)[C@@H]2Cn3c(cccc3=O)[C@@H]2N1CCC(F)(F)F	-1.2
OC[C@@H]1[C@@H](c2ccc(-c3ccccc3F)cc2)[C@H]2CN(Cc3ccncc3)CCCCN12	-1.6
C[C@H](NC(=O)C[C@@H]1CC[C@H]2[C@@H](COC[C@H](O)CN2C)O1)c1ccccc1	-3.1
Cc1cccc(S(=O)(=O)NC[C@@H]2CC[C@H]3NC[C@H]3O2)c1	-5.3
